Source: PubChem BioAssay (National Center for Advancing Translational Sciences (NCATS))
VDR inh: inhibitors of human vitamin D receptor; AID 504847; VDR-SRC2-3 peptide fluorescence polarization, 2 h; hit rate 0.93% among 400,000; Potency, µM, inactives show max response, negative = inhibition, actives largely listed as inhibitors; active = well fitted inhibition curve with a large enough effect; inconclusive = small, poorly fitted or top-dose-only effect, or another doubt; inactive = no such curve, though single readings can be large or run the other way; note: series mostly up to about 120 µM
Target sequence (P11473 whole entry, looked up): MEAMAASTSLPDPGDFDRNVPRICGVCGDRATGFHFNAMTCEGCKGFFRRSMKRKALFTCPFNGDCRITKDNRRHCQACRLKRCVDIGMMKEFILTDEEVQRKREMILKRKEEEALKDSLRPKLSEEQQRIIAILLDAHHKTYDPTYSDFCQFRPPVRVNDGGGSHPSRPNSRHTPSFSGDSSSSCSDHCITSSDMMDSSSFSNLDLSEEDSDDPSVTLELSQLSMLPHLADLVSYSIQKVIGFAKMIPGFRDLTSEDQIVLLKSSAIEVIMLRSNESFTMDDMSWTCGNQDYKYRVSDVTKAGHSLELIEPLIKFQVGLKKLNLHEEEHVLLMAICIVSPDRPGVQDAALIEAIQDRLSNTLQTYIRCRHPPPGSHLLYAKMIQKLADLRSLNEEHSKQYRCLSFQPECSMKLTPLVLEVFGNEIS
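VDR–SRC2-3 interaction, FP format. Cmpds 23 nl via pintool, brief spin, 2 h ambient incubation.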
Starred values were filed as active, the others as inactive; ? = inconclusive; & = joins results of further samples. % is set by controls: 0 for no effect and ±100 for the full control effect; potency is the fitted concentration of half-maximal effect. These rows are one share of the data, so the mix of outcomes need not match the whole.

SMILES	VDR inh
CN(C)/[N+]([O-])=N/Oc1cc(O/[N+]([O-])=N/N2CCCC2CO)c([N+](=O)[O-])cc1[N+](=O)[O-] (stereo not given)	1.3%
Cc1ccc(C)c(C(=O)CSc2nc(C)cc(=O)[nH]2)c1	6.8%
CCOc1ccccc1OCCC(=O)Nc1ccc2c(c1)OCO2	-0.4%
O=c1[nH]c([N+](=O)[O-])nn1C(c1ccccc1)c1ccccc1	13.8%
CCOC(=O)N1CCC(=NNc2ncc(C(F)(F)F)cc2Cl)CC1	-19.1%
Clc1ccc(-c2cn3c(n2)CCC3)cc1	27.8%
COc1ccc(CCNc2ncnc3nc[nH]c23)cc1	-8.6%
S=c1[nH]c2ncccc2o1	0.9%
C=CCN(c1ccccc1)S(=O)(=O)c1cccc(C(=O)N2CC(C)CC(C)C2)c1 (stereo not given)	8.1%
CCOC(=O)C(CC)n1nc(C)n2c(cc3occc32)c1=O (stereo not given)	-1.5%&-1.8%
O=C(CSc1nc2ccccc2[nH]1)NCc1ccc(F)cc1	2.3%
Cc1ccc(S(=O)(=O)n2ccc3c(OCCOCCSCC(NC(=O)OC(C)(C)C)C(=O)O)cccc32)cc1 (stereo not given)	-17.0%
COc1c2c(nc3ccccc13)OC(C(C)(O)CO)C2 (stereo not given)	-9.2%
CC(C)(C)[C@@H]1COC(=O)[C@H](Cc2ccc(F)cc2)C/C=C\C[C@H](CC(=O)N(CCO)Cc2ccccc2)C(=O)N1	0.8%
CC(C)NS(=O)(=O)c1ccc(NC(=S)NC(=O)c2ccc(-c3ccccc3)cc2)cc1	-3.2%
CCN(c1ccccc1)S(=O)(=O)c1cccc(C(=O)NCC(c2ccco2)N2CCCC2)c1 (stereo not given)	-1.7%
CCN(CC)CCCN(c1ccccc1)C1Cc2ccccc2C1	?
CCCCN(C)C(=O)c1cn(C)c2ccc(S(=O)(=O)N(C)C)cc2c1=O	-12.0%
CN(CC(=O)Nc1cc(Cl)cc(Cl)c1)Cc1cccs1	13.9%
CC1CN(C(=O)COC(=O)c2cccc(NS(=O)(=O)c3ccccc3)c2)CC(C)O1 (stereo not given)	1.7%
CCCCCOc1ccc(NC(=O)C(=O)NCCC2=CCCCC2)cc1	-4.8%
CN1CCN(c2nc(-c3cc4ccccc4o3)cs2)CC1	-7.3%
O=C(c1ccc(Cl)c(S(=O)(=O)N2CCOCC2)c1)N(Cc1nnc(-c2ccccc2Cl)o1)C1CC1	15.3%
O=C(NCCc1ccccc1)c1nn(-c2ccccc2Cl)nc1CO	12.1%
COc1ccccc1CN(Cc1cc2cc(C)cc(C)c2[nH]c1=O)Cc1nnnn1CC1CCCO1 (stereo not given)	20.2%
CCOc1ccc(C2CC(=O)c3c([nH]c(C(=O)OCC4CCCCC4)c3C)C2)cc1 (stereo not given)	-6.6%
Cc1ccc(S(=O)(=O)N2CCCCC2)c2nsnc12	-9.6%
Cc1cc2nc(-c3cccc(NC(=O)CSc4ccc(Cl)cc4)c3)oc2cc1C	-11.2%
COc1cccc(C2c3c(oc4ccc(Cl)cc4c3=O)C(=O)N2c2cc(C)on2)c1OC (stereo not given)	9.3%
COc1ccccc1CNS(=O)(=O)c1cccc(S(=O)(=O)N2CCOCC2)c1	-4.3%
CCOC(=O)C1CCC(CN(Cc2ccc(Cl)cc2)S(=O)(=O)c2ccc(Br)cc2)CC1 (stereo not given)	8.4%
CC(C)c1cccc(OCC(=O)Nc2ccc(S(=O)(=O)Nc3ccccn3)cc2)c1	0.4%
Cc1c(/C(O)=C2/C(=O)C(=O)N(CCN3CCOCC3)C2c2ccco2)cnn1-c1ccccc1 (stereo not given)	?
COc1ccccc1NC(=O)c1cc(S(=O)(=O)N(C)C2CCCCC2)ccc1F	5.9%
Nc1ccc2nn(-c3ccc(Cl)cc3)nc2c1	-8.0%
Cc1ccc(C)c(CSc2cn(CCNC(=O)c3ccccc3F)c3ccccc23)c1	4.2%
CC(Oc1ccccc1)C(=O)Nc1c2c(nn1-c1ccccc1)CS(=O)(=O)C2 (stereo not given)	-10.5%
O=C(NC(Cc1ccccc1)C(=O)O)c1ccccc1 (stereo not given)	19.0%
O=C1OCc2ccc(NC(=O)C3CCCCC3)cc21	6.1%
O=C(CSc1ncccn1)Nc1ccc(S(=O)(=O)N2CCCCC2)cc1	7.8%
O=C1CCCCCN1CP(=O)(O)CCc1ccccc1	-3.5%
CCOc1ccc(N(CC)C(=O)c2cn(CC)c(=O)c3cc(OC)c(OC)cc23)cc1	7.6%
N#Cc1cnc(SCC(=O)NNC(=O)COc2cccc3ccccc23)nc1N	-1.8%
O=C(CSc1ncccn1)N/N=C/c1cccc(OC2CSC2)c1	-6.8%
CCCCCCC(=O)N/N=C/Cc1ccccc1	1.3%

15 compounds already listed, ordered by number of heavy atoms, low to high:
SMILES	VDR inh
S=c1[nH]c2ncccc2o1	0.9%
Clc1ccc(-c2cn3c(n2)CCC3)cc1	27.8%
O=C1OCc2ccc(NC(=O)C3CCCCC3)cc21	6.1%
COc1ccc(CCNc2ncnc3nc[nH]c23)cc1	-8.6%
CN1CCN(c2nc(-c3cc4ccccc4o3)cs2)CC1	-7.3%
O=C(CSc1nc2ccccc2[nH]1)NCc1ccc(F)cc1	2.3%
CCN(CC)CCCN(c1ccccc1)C1Cc2ccccc2C1	?
O=C(NCCc1ccccc1)c1nn(-c2ccccc2Cl)nc1CO	12.1%
O=C(CSc1ncccn1)Nc1ccc(S(=O)(=O)N2CCCCC2)cc1	7.8%
COc1ccccc1CNS(=O)(=O)c1cccc(S(=O)(=O)N2CCOCC2)c1	-4.3%
Cc1cc2nc(-c3cccc(NC(=O)CSc4ccc(Cl)cc4)c3)oc2cc1C	-11.2%
CCOc1ccc(C2CC(=O)c3c([nH]c(C(=O)OCC4CCCCC4)c3C)C2)cc1 (stereo not given)	-6.6%
CCOc1ccc(N(CC)C(=O)c2cn(CC)c(=O)c3cc(OC)c(OC)cc23)cc1	7.6%
Cc1ccc(S(=O)(=O)n2ccc3c(OCCOCCSCC(NC(=O)OC(C)(C)C)C(=O)O)cccc32)cc1 (stereo not given)	-17.0%
CC(C)(C)[C@@H]1COC(=O)[C@H](Cc2ccc(F)cc2)C/C=C\C[C@H](CC(=O)N(CCO)Cc2ccccc2)C(=O)N1	0.8%

Next records.
SMILES	VDR inh
Cc1ccc(NC(=O)C2CCN(C(=O)c3ccco3)CC2)cc1	-12.5%
COc1cc2c(cc1OC)C(COc1cc(C)cc(C)c1)N(C(=O)C(C)(C)C)CC2 (stereo not given)	-0.2%
CN1CCc2c(sc3c2C(=O)NC(c2ccccn2)N3)C1 (stereo not given)	25.1µM*
CCOC(=O)C1=C(COC(=O)CNC(=O)c2cc(OC)c(OC)c(OC)c2)NC(=O)NC1C (stereo not given)	-8.7%
Cc1ccc(C2=NN(C(=O)C3CCCO3)C(c3ccco3)C2)cc1 (stereo not given)	4.4%
COC(=O)[C@@H]1C=C[C@H](C)[C@H](CCOc2ccccc2)O1	-2.8%
Cc1ccccc1NC(=O)c1sc(NC(=O)COc2ccccc2)c(C#N)c1C	-17.6%
CCc1nc2ccc(C(=O)N3CCN(c4ccccc4)CC3)cc2nc1CC	15.1%&3.2%
CCCCOc1c(Br)cc(/C=C2\N=C(C)OC2=O)cc1OCC	?
Cc1cccc(C)c1NC(=O)CN(C)C(=O)CN1C(=O)NC(C)(C)C1=O	-16.4%
CC(=O)Nc1ccc(N(C(=O)c2ccco2)C(C(=O)NC2CCCC2)c2ccc(N(C)C)cc2)cc1 (stereo not given)	6.7%
O=C(CN1CCOCC1)NC1CC2CCC1C2 (stereo not given)	-3.4%
O=C(NN1C(=O)c2cc(Br)ccc2NC1c1cc(Br)cc(Br)c1O)c1ccncc1 (stereo not given)	2.4%
COc1ccc(N2CCN(C(CNC(=O)c3c(F)cccc3F)c3ccc4c(c3)OCO4)CC2)cc1 (stereo not given)	9.5%
O=C(Cn1c2ccc(F)cc2c2nc3n(c(=O)c21)CCS3)N1CCCC1	5.1%
CCN(CC)S(=O)(=O)N1CCC(C(=O)NCc2ccc3c(c2)OCO3)CC1	-23.0%
CCC1Oc2ccccc2N(CC(=O)NCCC2=CCCCC2)C1=O (stereo not given)	-13.9%
CCCN=C1N(CC)C[C@@H]2[C@@H]3C(=O)N(Cc4ccccc4)C(=O)[C@@H]3[C@](Cc3ccccc3)(C(=O)OC)N12	-13.8%
C/C(=N/OC(=O)C1CC1)c1cc(-c2ccc(Cl)cc2)no1	2.5%
CC1CCCC(C)N1C(=O)c1ccc(CS(=O)(=O)c2ccccc2)cc1 (stereo not given)	-3.4%
CCOC(=O)Cc1ccc(NC(=O)N2CCOc3ccc(C)cc32)cc1	8.9%
CCN1/C(=c2/s/c(=C3/C(=O)N(c4ccccc4)N=C3C)n(CC)c2=O)C=Cc2ccccc21	-5.5%
O=C(COC(=O)c1ccccc1C(=O)c1ccc(Cl)cc1)NCCc1ccccc1	5.5%
C[C@H](NC(=O)c1nc[nH]c1C(=O)N[C@@H](C)c1ccccc1)C(=O)OC(C)(C)C	-14.4%
COc1cc(OC)cc(C(=O)N[C@H](C(=O)Nc2nc(-c3ccc(OC)c(OC)c3)cs2)C(C)C)c1	-15.2%
O=C(O)C1=NN(c2ccccc2)C(=O)CC1	-6.5%
COC(=O)[C@H](Cc1ccccc1)NC(=O)NCC1CCCO1 (stereo not given in full)	-2.9%
Cc1cc(NC(=O)CCNS(=O)(=O)c2ccc3[nH]c(=O)oc3c2)ccc1Br	-20.6%
Cc1ccc(C(=O)NC(=S)N2CCN(c3ccccc3F)CC2)cc1	-5.4%
CCCOc1ccc(-c2c(C(=O)N/N=C/c3ccc(C)o3)nnn2-c2nonc2N)cc1	20.1%
c1ccc(OCCCCN2CCOCC2)cc1	0.5%
O=C(NC1CCCC1)C(c1cccnc1)N(C(=O)c1ccco1)c1cccc(F)c1 (stereo not given)	9.2%
O=C(COC(=O)c1ccc(Cl)nc1)Nc1cccc(S(=O)(=O)N2CCCCC2)c1	-13.9%
CCNc1ncc2nc(-c3cccs3)c(=O)n(Cc3cccc(OC)c3)c2n1	-14.1%
Cc1cc(Nc2cccc(Cl)c2)nc2ccc(NC(=O)c3cncc(Br)c3)cc12	14.8%
CC(=O)Nc1ccc(S(=O)(=O)N2CCC(c3nc4ccccc4[nH]3)CC2)cc1	-1.2%
Cc1c(NC(=O)C(Sc2ccccc2)c2ccccc2)cccc1[N+](=O)[O-] (stereo not given)	-1.8%
CN(C)C(CNC(=O)c1cnc(Cl)c(Cl)c1)c1ccccc1 (stereo not given)	-23.4%
COc1ccc(C(=O)OCC(=O)NC2CCCCCC2)cc1OC	6.0%
OCCCn1c(-c2ccccc2)csc1=Nc1ccccc1	-5.2%
CCCCN(CCCC)CCCNC(=O)c1ccc2nc(N3CCCCC3)sc2c1	-7.4%
COC(=O)c1cc2n(n1)CCN(Cc1ccc(C)cc1)C2=O	-1.7%
Cc1cccc(Cn2nc(-n3cccc3)c3c(C)cc(C)nc32)c1	-13.7%
Cn1c(=O)c(C(=O)O)nn(-c2ccccc2)c1=O	1.4%
CC(C)CC(=O)NC(=S)Nc1cccc2nsnc12	0.6%
O=C(CCC1CCCCC1)Nc1ccc(C(=O)c2ccncc2)cc1	-18.9%
CN(CC(=O)Nc1ccccc1C(=O)NC1CC1)Cc1ccc(Cl)s1	5.7%
COc1ncc2nc(C)c(=O)n(CCC#N)c2n1	14.4%
CC(=O)c1cccc(NC(=O)CCn2c(=O)oc3ccccc32)c1	-2.4%
COc1cc(NC(=O)Nc2ccccc2)c(OC)cc1NC(=O)CN1CCCCC1	5.5%
C=C1CCN(c2ccc(C(=O)NCc3ccc(C)cc3)cc2[N+](=O)[O-])CC1	-6.3%
CC(=O)Nc1ccc(N2C(=O)CSC2c2c(F)cccc2Cl)cc1 (stereo not given)	14.1%
O=C(c1ccc(Cl)c([N+](=O)[O-])c1)N(Cc1cccc(Cl)c1)C1CCS(=O)(=O)C1 (stereo not given)	-9.6%
CCN(CC)CCn1c(NCc2ccccn2)nc2ccccc21	14.5%
CCOc1ccc(-c2cc3c(=O)n(CC(=O)NCc4ccc(Cl)cc4)ccn3n2)cc1	6.1%
O=C(NCCCN1CCOCC1)c1cccc(S(=O)(=O)N2CCOCC2)c1	-13.4%
CCC(=O)Nc1ccc(-c2nnc(SCC(=O)Nc3nccs3)n2C)cc1	-8.5%
COc1ccc(C(=O)NC(=S)Nc2cccnc2)cc1[N+](=O)[O-]	-9.3%
CC(C)C(C(=O)NCC1CCCO1)N(C(=O)CNS(=O)(=O)c1ccc(F)cc1)c1ccccc1 (stereo not given)	-3.6%
COc1ccccc1Nc1nc(C)cc(=O)[nH]1	5.5%
Additional records:
SMILES	VDR inh
O=C(C1=C[C@H](c2ccccc2)C[C@H](OCc2ccc(CO)cc2)O1)N1CCN(Cc2ccccc2)CC1	-17.1%
CC(=O)c1ccc(NC(=O)c2ccccc2Sc2ncnc3sc(C)c(C)c23)cc1	-15.6%
Cc1cccc(N(CC(=O)N2CCN(c3ccccc3F)CC2)S(C)(=O)=O)c1	23.9%
COCCn1c(N)c(Sc2ccc(C)cc2)c(=O)[nH]c1=O	-9.7%
CC1=Nc2ccc(Br)cc2C(c2ccccc2)N1CC(=O)NN (stereo not given)	-15.7%
C/C(=N\NC(=O)c1ccc(Cl)cc1)c1cccs1	11.9%
Cc1ccc(S(=O)(=O)c2c(Nc3cc(F)ccc3F)sc(C(=O)c3ccc(F)cc3)c2N)cc1	-23.6%
COCCn1c(SCC(=O)Nc2ccc(F)cc2)nc2ccccc2c1=O	-7.7%
CC(C)c1ccc(-c2nc(C(N)=O)c3c(n2)n(-c2ccc4c(c2)OCO4)c(=O)n3C)cc1	20.2%
N#C/C(=C\c1c(Oc2ccccc2F)nc2ccccn2c1=O)C(=O)NC1CCS(=O)(=O)C1 (stereo not given)	-12.4%
CC(C)CCNC(=O)CN(C(=O)CCC(=O)Nc1ccccn1)c1ccc2c(c1)OCCO2	6.0%
O=C(NS(=O)(=O)Oc1ccc(F)c(Cl)c1)OC[C@@H]1CCCN2CCCCC12 (stereo not given in full)	16.3%
